# Calb FLC = affects C. albicans growth with fluconazole. C. albicans CaCi-2 (fluconazole-resistant clinical isolate) + fluconazole, Alamar Blue growth, 48 h. growth inhibition, % (test concentration not listed). 300,000 tested, 0.57% active. AID 1979;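 active = most replicates above 75%; inconclusive = exactly half above 75%; inactive = most below 75%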;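 also: all wells also contain fluconazole at 8 µg/ml as a sub-toxic cotreatment; 0% = median of DMSO wells and 100% = median of geldanamycin control wells; wells of about 8 µL received 7.5 nL stock; the first replicate is given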
# Vif TR-FRET = inhibitors of Vif binding to APOBEC3G peptide, primary screen, biochemical, TR-FRET, GST-Vif 1-94, biotin-A3G peptide, dose response retest (AID 1117319) | TR-FRET GST-Vif / biotin-A3G peptide binding; higher % means a stronger effect; test concentration not given here; strong numbers were not always called active | inhibition, %, or IC50 in µM where a hit was titrated | 260,000 tested, 0.57% active;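 active = above the screen mean plus three standard deviations and confirmed in dose response; inconclusive = results disagree or hit not tested in dose response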;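 also: Vif residues 1-94 fused to GST binding biotinylated APOBEC3G peptide 110-148; 0% = full assay without inhibitor and 100% = GST in place of GST-Vif; retest series ran down from 100 µM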
# RanGTP-Imp inh = inhibitors of RanGTP-importin-beta interaction, primary screen, biochemical, FRET, CFP-Ran, YFP-importin-beta, homogeneous; inhibition, % (no concentration beside the values); AID 2216; cell-free CFP-Ran/YFP-importin-beta FRET ratio; 300,000 tested, 1.1% active;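 active = most replicates above 15%; inconclusive = exactly half above 15%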;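 also: 0% = DMSO wells and 100% = Ran loaded with GDP instead of GTP; wells of about 40 µL received 100 nL stock; the first replicate is given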
# B2AR ag = activates human beta-2 adrenergic receptor causing internalization. P07550. Am2.2-beta2AR cells, FAP receptor internalization, flow cytometry; reference of the scale not given here. response, % (test concentration not listed). 340,000 tested, 0.43% active;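 active = response above a set limit, near 3 SD of response in nonfluorescent compounds, cut at about 42% in these data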;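 also: stock transfer was 100 nL into about 11 µL; a reference agonist was the positive control; negative values mostly stem from fluorescent compounds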
# ALR H2O2 inh = human ALR oxidase inhibition via reduced H2O2; purified ALR, DTT oxidation, H2O2 HRP-luminol luminescence; inhibition, % (no concentration beside the values); P55789; 290,000 tested, 3.8% active; AID 485317;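 active = mean and each replicate at 75% or more; inconclusive = only one of the two met; inactive = neither met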;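 also: stock transfer was 7.5 nL into about 7.5 µL; 0% = neutral wells and 100% = wells with inactivated enzyme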
# HNF4A DNA FP = change in binding of human HNF4 alpha to DNA | P41235 | HNF4a-FITC DNA binding, fluorescence polarization, 1 h | activity change, % at 10 µM | 360,000 tested, 0.3% active | AID 1224865; in the data active = activity change above about 30%, passing the limit was not always enough;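 also: controls were the assay level and a saturating level of protein; the project sought stronger binding though the title names inhibitors; some compounds called inactive have numbers as strong as hits; positive values seem to mean higher polarization but the record does not say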
# LANA-H2A inh = blocks KSHV LANA binding to histone H2A/H2B. cell-free LANA-H2A/H2B peptide, fluorescence polarization. inhibition, % (no concentration beside the values). 320,000 tested, 0.6% active. AID 2629; in the data active = inhibition mostly above about 10%, no sharp cut-off; inactive = mostly below about 6.7%;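 also: stock transfer was 7.5 nL into about 10 µL; 0% = median of vehicle wells and 100% = median of positive control wells; one replicate is shown; the record names a cut of 25% in any replicate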
# Target sequence (Q9QR71 whole entry, looked up): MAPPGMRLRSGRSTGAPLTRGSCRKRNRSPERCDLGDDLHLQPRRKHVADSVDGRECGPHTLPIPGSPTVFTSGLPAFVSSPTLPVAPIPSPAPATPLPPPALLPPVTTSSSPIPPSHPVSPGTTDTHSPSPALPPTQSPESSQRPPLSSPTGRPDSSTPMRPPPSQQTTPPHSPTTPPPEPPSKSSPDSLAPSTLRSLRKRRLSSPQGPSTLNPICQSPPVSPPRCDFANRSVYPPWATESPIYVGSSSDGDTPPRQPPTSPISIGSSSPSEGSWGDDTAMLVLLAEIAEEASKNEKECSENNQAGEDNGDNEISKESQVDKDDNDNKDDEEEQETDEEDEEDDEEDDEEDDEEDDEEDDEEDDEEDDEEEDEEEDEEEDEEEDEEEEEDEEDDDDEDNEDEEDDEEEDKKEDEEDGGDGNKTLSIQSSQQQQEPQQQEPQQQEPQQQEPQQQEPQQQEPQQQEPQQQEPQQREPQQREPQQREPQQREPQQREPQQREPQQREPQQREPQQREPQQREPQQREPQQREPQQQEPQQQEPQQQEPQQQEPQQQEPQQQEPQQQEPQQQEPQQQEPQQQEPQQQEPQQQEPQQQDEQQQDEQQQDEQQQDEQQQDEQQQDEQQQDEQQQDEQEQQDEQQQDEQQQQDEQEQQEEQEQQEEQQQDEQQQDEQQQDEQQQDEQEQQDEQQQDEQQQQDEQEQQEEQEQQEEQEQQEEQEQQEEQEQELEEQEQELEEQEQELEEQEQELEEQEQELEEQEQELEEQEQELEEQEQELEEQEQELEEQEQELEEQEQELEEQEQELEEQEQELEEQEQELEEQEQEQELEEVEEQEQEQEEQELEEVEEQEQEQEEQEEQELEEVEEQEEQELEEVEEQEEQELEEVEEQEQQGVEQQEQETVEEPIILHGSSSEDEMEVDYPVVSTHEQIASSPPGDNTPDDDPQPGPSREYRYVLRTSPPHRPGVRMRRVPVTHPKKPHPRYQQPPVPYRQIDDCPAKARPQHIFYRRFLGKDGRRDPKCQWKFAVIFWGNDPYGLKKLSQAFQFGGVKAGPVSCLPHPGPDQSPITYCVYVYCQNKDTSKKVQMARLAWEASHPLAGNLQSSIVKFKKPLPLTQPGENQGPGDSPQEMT
# * hit, by the source's call; u = inconclusive; x = not tested or not shown. Rows are unselected (roughly 6.3% active in at least one column).
no.	SMILES	RanGTP-Imp inh	B2AR ag	ALR H2O2 inh	LANA-H2A inh	Vif TR-FRET	Calb FLC	HNF4A DNA FP
1	Cc1noc(NS(=O)(=O)c2ccc(NC(=O)c3ccc(Br)o3)cc2)c1C	-0.4	5	6	5.4	8%	u	-2.1
2	c1ccc(OCCCCn2cnc3ccccc32)cc1	7.3	45*	-10	3.4	-5%	25	-3.1
3	CN(/N=C/C=C/c1ccccc1)c1cc(=O)n(C)c(=O)[nH]1	14	5	-97	-0.2	8%	2	-2.0
4	COc1cc2c(c(OC)c1)C(c1ccncc1)CC(=O)N2 (stereo not given)	x	5	-6	0.2	u	x	1.8
5	O=C(O)/C(=C\c1ccc(C(F)(F)F)cc1)c1ccc(S(=O)(=O)N2CCCC2)s1	x	1	42	-1.2	-11%	x	-3.6
6	c1ccc(CN2CCC3(CCCc4ccccc43)CC2)cc1	x	21	7	-2.3	x	x	1.3
7	CCOC(=O)C1CCN(S(=O)(=O)c2ccc(CC)cc2)CC1	3.6	2	14	2.1	-4%	8	2.3
8	CCN1/C(=C\C=C2\C(=O)N(C)C(=S)N2C)Sc2ccccc21	0.2	-12	21	-3.1	-6%	-3	32
9	COc1ccc(Nc2ncc3c(n2)CC(c2ccc(OC)cc2)CC3=O)cc1 (stereo not given)	-0.7	6	-4	0.5	2%	-6	0.1
10	CCOc1ccc(N=Cc2c(C)[nH]n(-c3nc4ccccc4[nH]3)c2=O)cc1	-4.5	-11	x	4.9	x	-7	2.7
11	COc1cccc(C(=O)Nc2cccc(-c3ccc4nncn4n3)c2)c1OC	6.1	7	10	-8.6	-1%	15	7.3
12	Cc1ccc(NC(=O)COC(=O)CN2C(=O)NC3(CCCC3)C2=O)cc1F	x	-2	14	4.8	x	x	-3.3
13	Cc1ccc(S(=O)(=O)NCc2ccccc2)cc1C(=O)NC1CCCCC1	-3.1	-4	0	6.4	1%	7	-2.7
14	CCOc1ccccc1N(CC(=O)NC1CCCCC1)C(=O)CCC(=O)Nc1cc(C)ccn1	6.7	13	x	-3.0	x	-7	1.3
15	COc1ccc(N(C)S(=O)(=O)c2cccc(C(=O)N3CCN(c4ccccc4)CC3)c2)cc1	x	17	x	x	1%	x	0.0
16	COC(=O)C1C(c2ccccc2)C=CC(c2ccccc2)C1C(=O)O (stereo not given)	u	-2	x	-1.8	1%	-2	4.4
17	Cc1ccc2c(c1)Oc1ccccc1C=C2C(=O)O	3.4	10	9	1.4	x	27	3.4
18	COc1ccc(CNC(=O)OCCN2CCN(S(=O)(=O)c3ccc(C)cc3)CCC2=O)cc1	-3.4	-18	-1	1.8	4%	4	-1.3
19	COc1ccc(Nc2nc3ccccc3n3cnnc23)cc1Cl	-1.0	-6	-2	-5.5	-3%	19	2.5
20	Cc1ccc(CNC(=O)C(=O)NCCCn2ccnc2)cc1	-0.2	-5	x	-0.6	u	-1	0.4
21	CCCc1nc2ccccc2c(=O)n1CCc1ccccc1	-2.7	0	x	5.2	x	-5	1.8
22	CN(c1ccccc1)S(=O)(=O)c1ccc(NC(=O)c2nc(S(C)(=O)=O)ncc2Cl)cc1	0.9	90*	8	6.3	x	-2	0.9
23	COCCNC(=O)C(=O)Nc1cccc(Br)c1	1.1	-1	x	0.3	0%	7	0.6
24	Cc1ccc2nc(C(F)(F)F)c(C#N)c(N)c2c1	2.1	15	-6	0.1	0%	-46	2.5
25	CCc1nc(C)cn1S(=O)(=O)c1cc(Br)ccc1OC	2.8	11	-4	-1.0	0%	-6	-1.5

# Sorted by SMILES length (low to high): part of the list above.
no.	SMILES	RanGTP-Imp inh	B2AR ag	ALR H2O2 inh	LANA-H2A inh	Vif TR-FRET	Calb FLC	HNF4A DNA FP
23	COCCNC(=O)C(=O)Nc1cccc(Br)c1	1.1	-1	x	0.3	0%	7	0.6
17	Cc1ccc2c(c1)Oc1ccccc1C=C2C(=O)O	3.4	10	9	1.4	x	27	3.4
24	Cc1ccc2nc(C(F)(F)F)c(C#N)c(N)c2c1	2.1	15	-6	0.1	0%	-46	2.5
6	c1ccc(CN2CCC3(CCCc4ccccc43)CC2)cc1	x	21	7	-2.3	x	x	1.3
25	CCc1nc(C)cn1S(=O)(=O)c1cc(Br)ccc1OC	2.8	11	-4	-1.0	0%	-6	-1.5
4	COc1cc2c(c(OC)c1)C(c1ccncc1)CC(=O)N2 (stereo not given)	x	5	-6	0.2	u	x	1.8
7	CCOC(=O)C1CCN(S(=O)(=O)c2ccc(CC)cc2)CC1	3.6	2	14	2.1	-4%	8	2.3
8	CCN1/C(=C\C=C2\C(=O)N(C)C(=S)N2C)Sc2ccccc21	0.2	-12	21	-3.1	-6%	-3	32
11	COc1cccc(C(=O)Nc2cccc(-c3ccc4nncn4n3)c2)c1OC	6.1	7	10	-8.6	-1%	15	7.3
9	COc1ccc(Nc2ncc3c(n2)CC(c2ccc(OC)cc2)CC3=O)cc1 (stereo not given)	-0.7	6	-4	0.5	2%	-6	0.1
12	Cc1ccc(NC(=O)COC(=O)CN2C(=O)NC3(CCCC3)C2=O)cc1F	x	-2	14	4.8	x	x	-3.3
1	Cc1noc(NS(=O)(=O)c2ccc(NC(=O)c3ccc(Br)o3)cc2)c1C	-0.4	5	6	5.4	8%	u	-2.1
10	CCOc1ccc(N=Cc2c(C)[nH]n(-c3nc4ccccc4[nH]3)c2=O)cc1	-4.5	-11	x	4.9	x	-7	2.7
18	COc1ccc(CNC(=O)OCCN2CCN(S(=O)(=O)c3ccc(C)cc3)CCC2=O)cc1	-3.4	-18	-1	1.8	4%	4	-1.3
22	CN(c1ccccc1)S(=O)(=O)c1ccc(NC(=O)c2nc(S(C)(=O)=O)ncc2Cl)cc1	0.9	90*	8	6.3	x	-2	0.9

# (cont.)
no.	SMILES	RanGTP-Imp inh	B2AR ag	ALR H2O2 inh	LANA-H2A inh	Vif TR-FRET	Calb FLC	HNF4A DNA FP
26	COc1cc2cc(CN(Cc3cccnc3)C(=O)Nc3ccccc3F)c(=O)[nH]c2cc1OC	-0.8	3	-3	2.0	1%	-2	-1.3
27	CC(=O)c1cccc(CN2CCC(n3nccc3NC(=O)c3ccc4c(c3)OCO4)CC2)c1	-0.5	0	-2	3.0	x	-12	0.3
28	CC1CCN(C2=NC(=O)/C(=C/c3cccc(O)c3)S2)CC1	u	10	55	3.8	0%	-12	1.7
29	C[C@@H]1C(=O)O[C@H]2[C@H]1CC[C@@]1(C)C(=O)C=C[C@@](C)(O)[C@H]21	-3.3	4	x	6.3	3%	-8	2.2
30	NCCCC[C@@H]1NC(=O)c2cc([N+](=O)[O-])cc(F)c2NCCCC[C@@H](C(N)=O)NC(=O)[C@H](CCC(N)=O)NC1=O	-1.5	-1	10	1.8	7%	5	5.0
31	O=C(c1ccc(COc2ccccc2Br)o1)N1CCN(c2ccccn2)CC1	0.8	-2	-12	-5.6	-2%	11	1.8
32	Cc1cc(C)c(C#N)c(SCc2nnc(-c3ccccc3[N+](=O)[O-])o2)n1	u	-9	-6	-4.6	0%	52	-3.9
33	Cc1ccc(S(=O)(=O)Nc2nc(C)c(C(=O)NN)s2)cc1	-0.9	-3	-6	-0.6	-10%	-4	3.6
34	COc1ccc(C2C(C(=O)N3CCCC3)c3cc(OC)c(OC)cc3C(=O)N2C)cc1OC (stereo not given)	-1.4	3	-24	2.5	8%	-7	0.2

# Record cards, as listed above. Values in the order: RanGTP-Imp inh	B2AR ag	ALR H2O2 inh	LANA-H2A inh	Vif TR-FRET	Calb FLC	HNF4A DNA FP
# Entry for `CC1CCN(C2=NC(=O)/C(=C/c3cccc(O)c3)S2)CC1` = u	10	55	3.8	0%	-12	1.7
# Entry for `COc1ccc(C2C(C(=O)N3CCCC3)c3cc(OC)c(OC)cc3C(=O)N2C)cc1OC` (stereo not given) = -1.4	3	-24	2.5	8%	-7	0.2

# High-throughput results as filed in PubChem BioAssay.
